Ecoli rRNA inh = reduced GFP signal of wild-type E. coli, primary screen, bacterial rRNA inhibitor project, GFP/RFP fluorescence, OD600, single point; E. coli WT GFP vs humanized-ribosome RFP mutants, 24 h; active compounds read low; DMSO median 0, no signal -100; GFP signal change (wild-type ribosome), % (test concentration not listed); hit rate 1.6% among 350,000; AID 720706, 2013;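 active means significant combined selectivity score with lowered wild-type GFP, culture density cut under 30%, mutant RFP and density less affected; inactive means any of these conditions unmet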; further: one replicate is shown; some compounds called inactive have numbers as strong as hits
Ecoli rRNA inh OD600 = second read-out of Ecoli rRNA inh, no call of its own (marks repeat the call); OD600 change, %; measured here: OD600 growth;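 optical density of the mix in the first replicate; 0 = DMSO median and -100 = no signal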
Ecoli rRNA inh RFP = also measured in Ecoli rRNA inh; calls as there; RFP signal change, %; measured here: RFP humanized mutant strains;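 first replicate; 0 = DMSO median and -100 = no signal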
Numbers without * were called inactive. This is a subset; rates above refer to the full screens.

SMILES	Ecoli rRNA inh	Ecoli rRNA inh OD600	Ecoli rRNA inh RFP
COCC(=O)N1C[C@H](C)[C@@H](OC)CN(C)C(=O)c2ccc(NC(=O)c3ccc(OC)cc3)cc2OC[C@@H]1C	-3	2	-0.2
CCC[C@H]1CN(c2ccccc2)C(=O)[C@@H]1CC(=O)NC	14	4	1.8
C/C=C/c1ccc([C@H]2[C@@H](CO)N(S(C)(=O)=O)[C@H]2CN(CC)C(C)=O)cc1	4	2	0.3
COc1ccc(CNC(=O)C[C@H]2C=C[C@H](NC(=O)CN(C)C)[C@H](CO)O2)cc1	1	-1	-1.3
C[C@@H]1CN([C@@H](C)CO)C(=O)c2cc(/C=C/c3ccccc3)cnc2O[C@@H]1CN(C)C(=O)c1ccc(F)cc1	-9	-19	7.7
CC(C)NC(=O)Nc1ccc2c(c1)C(=O)N([C@H](C)CO)C[C@@H](C)[C@@H](CN(C)S(=O)(=O)c1cccs1)OCCCC[C@H](C)O2	-3	0	-0.8
C[C@H]1CN([C@@H](C)CO)C(=O)Cc2cc(NS(=O)(=O)c3ccccc3)ccc2O[C@@H]1CN(C)C(=O)Nc1ccc(C(F)(F)F)cc1	-4	-6	-0.9
CCNC(=O)C[C@H]1CC[C@@H](NS(=O)(=O)c2ccc(C)cc2)[C@@H](CO)O1	3	1	4.9
CCCNC(=O)C[C@@H]1C[C@H]2c3cc(NC(=O)Nc4ccccc4)ccc3O[C@H]2[C@H](CO)O1	-2	-5	2.2
O=C(C[C@H]1CC[C@@H]2[C@H](COC[C@@H](O)CN2S(=O)(=O)c2cccc(Cl)c2)O1)NC1CCC1	5	12	-2.5
C[C@@H]1CN([C@H](C)CO)C(=O)c2cc(/C=C/c3ccccc3)cnc2O[C@@H]1CN(C)Cc1ccccc1	-1	-5	3.4
COc1ccc(NC(=O)Nc2ccc3c(c2)C(=O)N([C@H](C)CO)C[C@H](C)[C@@H](CN(C)S(=O)(=O)c2ccc(F)cc2)OCCCC[C@H](C)O3)cc1	-4	-3	-0.9
C[C@H]1COC[C@@H](C/C=C/c2ccccc2)N1c1ccccc1	-22	-36	-6.4
CCS(=O)(=O)Nc1ccc2c(c1)C(=O)N(C)[C@H]1CC[C@H](CC(=O)N[C@@H]3CCN(Cc4ccccc4)C3)O[C@@H]1CO2	0	2	-1.5
C[C@H](CO)N1C[C@H](C)[C@H](CN(C)C(=O)Nc2ccc(C(F)(F)F)cc2)Oc2c(NC(=O)Nc3cccc4ccccc34)cccc2C1=O	-4	4	-2.5
C[C@@H]1CN([C@@H](C)CO)C(=O)CCCn2cc(nn2)CO[C@@H]1CN(C)Cc1ccc2c(c1)OCCO2	0	-7	-1.2
COc1ccccc1NC(=O)N[C@@H]1CC[C@@H](CCNS(=O)(=O)c2ccc(C)cc2)O[C@H]1CO	-3	4	0.3
O=C(N[C@H](C(=O)N1CCC[C@H]1C(=O)NCc1ccccc1)c1ccccc1)c1ccc(Cl)c(Cl)c1	-25	-33	-5.7
CCN1[C@H](C(=O)NC2CCC2)[C@@H](CO)[C@@H]2Cn3c(ccc(-c4ccc(OC)cc4)c3=O)[C@@H]21	-1	-9	1.6
C[C@@H]1CN([C@H](C)CO)C(=O)c2cc(N(C)C)ccc2O[C@@H](C)CCCCO[C@@H]1CN(C)C(=O)c1ccncc1	0	11	-2.6
Cc1ccc(S(=O)(=O)NCC[C@@H]2CC[C@H](NC(=O)c3cnccn3)[C@@H](CO)O2)cc1	3	-7	-3.2
CCCC(=O)Nc1ccc2c(c1)OC[C@@H](C)N(Cc1cccc(F)c1)C[C@H](C)[C@H](OC)CN(C)C2=O	-4	-18	12
O=C(C1CC1)N1CC[C@@H]2[C@@H](CO)Nc3ccc(C#Cc4ccc(F)cc4)cc3[C@@H]21	-22	-64	12
O=C(NC1CC1)c1ccc(-c2cnc3cccnn23)cc1	-3	-1	0.7
C[C@H]1CN([C@@H](C)CO)C(=O)Cc2cc(NS(=O)(=O)c3cn(C)cn3)ccc2O[C@H]1CN(C)C(=O)Nc1ccc(F)cc1	10	14	1.9
O=C(C1CCC1)N1CC(=O)N2[C@@H](CO)[C@H](c3ccc(C#Cc4cccc(F)c4)cc3)[C@@H]2C1	-28	-69	13
C[C@@H]1CN([C@@H](C)CO)C(=O)c2cc(C#Cc3ccccc3)cnc2O[C@H]1CN(C)C(=O)CN(C)C	1	1	-1.0
Nc1[nH]c(C(=O)c2ccc(Br)cc2)c(-c2ccc(Br)cc2)c1C(=O)NCCc1c[nH]c2ccccc12	-4	2	-4.5
CC=Cc1ccc2n(c1=O)C[C@@H]1[C@@H](CO)[C@H](C(=O)NCC(F)(F)F)N(CCc3ccccc3)[C@H]21 (mixture of isomers)	-3	-6	-1.0
C[C@H](CO)N1C[C@H](C)[C@H](CN(C)CC2CC2)Oc2ncc(C#CC3(O)CCCC3)cc2C1=O	4	-2	-0.7
Cc1ccc(S(=O)(=O)N[C@@H]2CC[C@@H](CCNC(=O)C3CCCC3)O[C@@H]2CO)cc1	2	3	-3.0
CCc1nc2ccc(C(=O)N3CCN(C(C)=O)CC3)cn2c1N(C=O)Cc1ccc(OC)cc1	5	15	-0.5
COCC#Cc1ccc2c(c1)O[C@@H](CN(C)C(=O)c1ccccc1)[C@@H](C)CN([C@H](C)CO)S2(=O)=O	-2	-6	-1.9
CCS(=O)(=O)Nc1ccc2c(c1)C(=O)N(C)C[C@@H](OC)[C@H](C)CN(CC1CCCCC1)[C@@H](C)CO2	-3	-29	-2.5
C[C@H](CO)N1C[C@H](C)[C@@H](CN(C)C(=O)C2CC2)Oc2cc(-c3ccc(F)cc3)ccc2S1(=O)=O	-6	-12	-2.1
CCCN1[C@H](C(=O)NCCCN2CCOCC2)[C@@H](CO)[C@@H]2Cn3c(ccc(-c4ccccc4)c3=O)[C@@H]21	-3	1	-1.9
C[C@H]1CCCCO[C@@H](CN(C)C(=O)Nc2ccccc2)[C@@H](C)CN([C@@H](C)CO)C(=O)c2cc(NC(=O)Nc3ccc4c(c3)OCO4)ccc2O1	4	0	-4.8
CO[C@@H](CN(C)C(=O)c1ccccc1F)[C@@H](C)CN([C@@H](C)CO)S(=O)(=O)c1ccc(F)cc1	2	2	-0.9
CC(C)CNC(=O)C1(C)CCCN1Cc1ccc(S(C)(=O)=O)cc1 (stereo unspecified)	18	16	1.7
O=C(c1ccccn1)N1C[C@@H]2[C@H](c3ccccc31)[C@@H](CO)N2C(=O)C1CCCC1	1	2	-1.1
COc1ccc(NC(=O)c2cc3ccccc3oc2=O)cc1	5	3	0.2
CCNC(=O)C[C@@H]1CC[C@H]2[C@@H](COc3ccc(NC(=O)c4cccc(OC)c4)cc3C(=O)N2C)O1	5	0	0.5
CO[C@@H]1CN(C)C(=O)c2cc(NC(=O)C3CC3)ccc2OC[C@H](C)N(Cc2nccs2)C[C@@H]1C	-5	-6	-1.5
C[C@H]1CN([C@@H](C)CO)C(=O)Cc2cc(NS(=O)(=O)c3ccc(F)cc3)ccc2O[C@H]1CN(C)Cc1ccccc1	5	-15	12
CC(C)NC(=O)N1CCCCN2[C@@H](CO)[C@@H](c3ccc(Br)cc3)[C@@H]2C1	2	9	-1.7
O=C(C1CCCC1)N1CC2(C1)[C@@H](c1ccccc1)[C@@H](CO)N2C(=O)NC1CCCC1	1	2	-0.5
COc1ccccc1S(=O)(=O)N[C@H]1CC[C@H](CCn2cc(C3CC3)nn2)O[C@H]1CO	1	5	-0.3
Cc1cccc(C)c1NC(=O)C(c1ccc(-c2ccccc2)cc1)n1c(=O)c(-c2ccco2)nc2ccccc21 (stereo unspecified)	2	1	52

Ordered by SMILES length (highest first): 3 of the compounds above
SMILES	Ecoli rRNA inh	Ecoli rRNA inh OD600	Ecoli rRNA inh RFP
CCNC(=O)C[C@@H]1CC[C@H]2[C@@H](COc3ccc(NC(=O)c4cccc(OC)c4)cc3C(=O)N2C)O1	5	0	0.5
Cc1cccc(C)c1NC(=O)C(c1ccc(-c2ccccc2)cc1)n1c(=O)c(-c2ccco2)nc2ccccc21 (stereo unspecified)	2	1	52
O=C(C1CCCC1)N1CC2(C1)[C@@H](c1ccccc1)[C@@H](CO)N2C(=O)NC1CCCC1	1	2	-0.5

Remaining list, next part
SMILES	Ecoli rRNA inh	Ecoli rRNA inh OD600	Ecoli rRNA inh RFP
O=C(C[C@H]1CC[C@@H](NC(=O)Nc2cc(F)ccc2F)[C@@H](CO)O1)NCc1ccncn1	-1	-2	-0.6
C/C=C/c1ccc([C@@H]2[C@H]3CN(Cc4ccc(C(=O)OC)cc4)CC(=O)N3[C@H]2CO)cc1	2	-13	7.8
COCC(=O)N1CCC2(CC1)CN(Cc1cccc(OC)c1)[C@H](CO)c1[nH]c3cc(OC)ccc3c12	3	-10	1.4
CO[C@H]1CN(C)C(=O)c2cc(NC(=O)NC(C)C)ccc2OC[C@H](C)N(C(=O)CC2CC2)C[C@H]1C	2	-2	-3.3
CCC(=O)N(C)C[C@@H]1Oc2cc(-c3ccc(C)cc3)ccc2S(=O)(=O)N([C@@H](C)CO)C[C@@H]1C	-5	-4	-1.1
C[C@@H]1CN([C@H](C)CO)C(=O)c2cccc(NC(=O)C3CCOCC3)c2O[C@H]1CN(C)Cc1ccccc1	-6	-7	1.5
CCCCNc1c(-c2cccnc2)nc2nc(C)cc(C)n12	10	21	-5.4
C[C@H](CO)N1C[C@H](C)[C@H](CN(C)C(=O)CN2CCOCC2)Oc2ncc(/C=C/c3ccccc3)cc2C1=O	5	10	3.0
Cc1ccc(S(=O)(=O)Nc2ccc3c(c2)C(=O)N([C@H](C)CO)C[C@H](C)[C@@H](CN(C)S(=O)(=O)c2ccc(C)cc2)OCCCC[C@H](C)O3)cc1	-3	1	-1.1
CCCN1C[C@H](C)[C@H](OC)CN(C)C(=O)c2ccc(NC(=O)c3ccc(F)cc3)cc2OC[C@H]1C	-1	0	0.7
CC(=O)NNc1nc(-c2ccccc2)c2cc(Cl)ccc2n1	-4	-22	-4.5
C[C@H]1CN([C@@H](C)CO)C(=O)c2cccc(NC(=O)C3CCOCC3)c2O[C@H]1CN(C)C(=O)Nc1cccc2ccccc12	1	8	2.9

Given with two lines to a compound: five of the compounds above
Values run as follows: Ecoli rRNA inh | Ecoli rRNA inh OD600 | Ecoli rRNA inh RFP
CC(=O)NNc1nc(-c2ccccc2)c2cc(Cl)ccc2n1
→ -4 | -22 | -4.5
O=C(C[C@H]1CC[C@@H](NC(=O)Nc2cc(F)ccc2F)[C@@H](CO)O1)NCc1ccncn1
→ -1 | -2 | -0.6
CCCCNc1c(-c2cccnc2)nc2nc(C)cc(C)n12
→ 10 | 21 | -5.4
CO[C@H]1CN(C)C(=O)c2cc(NC(=O)NC(C)C)ccc2OC[C@H](C)N(C(=O)CC2CC2)C[C@H]1C
→ 2 | -2 | -3.3
COCC(=O)N1CCC2(CC1)CN(Cc1cccc(OC)c1)[C@H](CO)c1[nH]c3cc(OC)ccc3c12
→ 3 | -10 | 1.4

(further entries)
SMILES	Ecoli rRNA inh	Ecoli rRNA inh OD600	Ecoli rRNA inh RFP
CNC(=O)C[C@H]1CC[C@H]2[C@@H](COc3ccc(NC(=O)Nc4ccc(C)cc4)cc3C(=O)N2C)O1	-1	-6	1.6
C[C@@H]1CCCCO[C@@H](CN(C)C(=O)Nc2cccc3ccccc23)[C@H](C)CN([C@H](C)CO)C(=O)c2cc(NC(=O)Nc3ccc(C(F)(F)F)cc3)ccc2O1	1	2	1.3
CO[C@H]1CN(C)C(=O)c2ccc(NC(=O)C3CCC3)cc2OC[C@@H](C)N(Cc2ccncc2)C[C@H]1C	-2	0	0.1
C[C@@H]1O[C@H](C2CCCC2)CC2=C1C(=O)OC(C)(C)O2	17	6	0.7
C[C@@H]1CN([C@@H](C)CO)C(=O)c2cc(NS(=O)(=O)c3ccccc3)ccc2O[C@@H](C)CCCCO[C@@H]1CN(C)S(=O)(=O)c1cccs1	-2	-1	-4.1
O=C(C[C@H]1C=C[C@H](NC(=O)CC2CC2)[C@@H](CO)O1)NCc1ccccc1	-3	-1	0.7
CCCN1C(=O)c2n[nH]c(C)c2C1c1ccc2c(c1)OCO2 (stereo unspecified)	0	4	0.3
CCCNC(=O)[C@H]1[C@H](CO)[C@H]2Cn3c(cccc3=O)[C@H]2N1Cc1cccc(F)c1	0	3	-1.5
CCC(=O)Nc1ccc2c(c1)OC[C@H](C)N(C(=O)C1CC1)C[C@@H](C)[C@H](OC)CN(C)C2=O	1	6	-3.0
C[C@H]1CN([C@@H](C)CO)C(=O)c2cc(-c3ccc(C(=O)N(C)C)cc3)cnc2O[C@H]1CN(C)C(=O)c1cccnc1	9	19	-2.0
O=C(C[C@H]1CC[C@@H](NC(=O)c2ccc3c(c2)OCO3)[C@H](CO)O1)NC1Cc2ccccc2C1	-1	-5	-0.8
C[C@H](CO)N1C[C@H](C)[C@H](CN(C)S(=O)(=O)c2ccc(-n3cccn3)cc2)OCc2cn(nn2)CCCC1=O	-2	-10	1.3
COc1cccc(CNC(=O)C[C@@H]2C=C[C@H](NC(C)=O)[C@@H](CO)O2)c1	3	4	-0.7
C[C@@H]1CCCCO[C@H](CN(C)C(=O)Nc2ccc(C(F)(F)F)cc2)[C@H](C)CN([C@@H](C)CO)C(=O)c2cc(NC(=O)Nc3ccc(C(F)(F)F)cc3)ccc2O1	-1	13	-0.9
COCC(=O)N1CC2(CN(Cc3cccnc3)C2)c2c(n(C)c3cc(OC)ccc23)[C@@H]1CO	-1	4	-1.5
O=C(O)C[C@H]1C[C@@H]2c3cc(NC(=O)Nc4ccc(F)cc4)ccc3O[C@@H]2[C@@H](CO)O1	2	5	-0.4
O=C(c1ccc(F)cc1)N1CC(=O)N2[C@@H](CO)[C@H](c3ccc(-c4cccnc4)cc3)[C@@H]2C1	3	2	0.6
